Screens: PubChem BioAssay, Broad Institute
Yeast UUG start = modulators of start codon recognition fidelity in yeast | activity score, % at 18.7 µM | S. cerevisiae UUG-firefly luciferase reporter, luminescence/redox ratio | 0.13% of 350,000 active;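 active means replicate mean at a twofold rise or more, about +100% in these data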;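 further: firefly luciferase made from a UUG start codon reports start codon fidelity; reporter light over untreated wells divided by growth signal over untreated wells; some hits fall short of that in this replicate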
* = called active by the depositor.

Yeast UUG start | compound
5 | C[C@H](CO)N1C[C@H](C)[C@H](CN(C)C(=O)NC2CCCCC2)Oc2c(NC(=O)c3ccc(-c4nccs4)cc3)cccc2C1=O
-10 | O=C(NC[C@H]1[C@H](c2ccccc2)[C@@H](CO)N1Cc1ccccn1)C1CC1
7 | COc1ccc(CN(C)C[C@H]2Oc3ccc(NC(=O)Nc4ccc(F)cc4)cc3C(=O)N([C@H](C)CO)C[C@H]2C)cc1
-17 | CC(C)NC(=O)N1[C@H](CO)[C@@H]2c3ccccc3N(C)C[C@@H]21
-9 | C[C@H](CO)N1C[C@H](C)[C@H](CN(C)S(=O)(=O)c2cccs2)Oc2ccc(NC(=O)Nc3cccc4ccccc34)cc2C1=O
7 | CNC(=O)C[C@H]1CC[C@H]2[C@@H](COC[C@@H](O)CN2S(=O)(=O)c2ccc(Oc3ccccc3)cc2)O1
7 | CN(C)C(=O)c1ccc(-c2ccc3c(c2)[C@H]2[C@H](CCN2C(=O)C2CC2)[C@@H](CO)N3C)cc1
-8 | C[C@H]1CN([C@@H](C)CO)C(=O)c2cc(NC(=O)c3ccncc3)ccc2O[C@@H]1CN(C)Cc1ccc(-c2ccccc2)cc1
-5 | COc1ccc(C#Cc2ccc3c(c2)[C@@H]2[C@@H](CCN2S(=O)(=O)c2ccccc2C)[C@@H](CO)N3)cc1
26 | CN(C)CC#Cc1ccc([C@@H]2[C@H](CO)N3CCCCN(C(=O)Nc4ccccc4F)C[C@@H]23)cc1
4 | CCS(=O)(=O)N1CCCCN2[C@H](C1)[C@H](c1ccc(-c3ccccc3F)cc1)[C@@H]2CO
2 | CCC(=O)N1CC[C@H]2[C@@H]1c1cc(-c3cccc(OC)c3)ccc1N(C)[C@H]2CO

Part of the list above, field by field:
O=C(NC[C@H]1[C@H](c2ccccc2)[C@@H](CO)N1Cc1ccccn1)C1CC1
  Yeast UUG start: -10
COc1ccc(CN(C)C[C@H]2Oc3ccc(NC(=O)Nc4ccc(F)cc4)cc3C(=O)N([C@H](C)CO)C[C@H]2C)cc1
  Yeast UUG start: 7
CC(C)NC(=O)N1[C@H](CO)[C@@H]2c3ccccc3N(C)C[C@@H]21
  Yeast UUG start: -17
C[C@H](CO)N1C[C@H](C)[C@H](CN(C)S(=O)(=O)c2cccs2)Oc2ccc(NC(=O)Nc3cccc4ccccc34)cc2C1=O
  Yeast UUG start: -9

(continued)
Yeast UUG start | compound
40 | CO[C@H]1CN(C)C(=O)c2ccc(NC(=O)C3CCC3)cc2OC[C@@H](C)N(Cc2nccs2)C[C@H]1C
14 | CO[C@@H]1CN(C)C(=O)c2ccc(NC(=O)C3CC3)cc2OC[C@@H](C)N(C(=O)c2ccccc2)C[C@@H]1C
-6 | COc1cccc(S(=O)(=O)N2CCCCN3[C@H](CO)[C@H](c4ccc(C#CC(C)C)cc4)[C@H]3C2)c1
-9 | COCC(=O)N1CC[C@@H]2[C@H]1c1cc(-c3cccc(C(=O)N(C)C)c3)ccc1N[C@@H]2CO
1 | O=C(C[C@@H]1CC[C@H]2[C@@H](COC[C@H](O)CN2S(=O)(=O)c2cccc(Cl)c2)O1)Nc1ccccc1
-10 | CCNC(=O)C[C@H]1CC[C@@H]2[C@H](COC[C@@H](O)CN2C(=O)CC)O1
-8 | COc1ccccc1CN1[C@@H](CO)[C@@H]2c3ccccc3N(C(=O)c3ccncc3)C[C@@H]21
11 | COc1cccc(C(=O)N2C[C@H]3[C@@H](c4ccccc42)[C@H](CO)N3C(=O)c2ccccc2)c1
-1 | COc1ccc(NC(=O)N2C[C@H]3[C@@H](c4ccccc42)[C@@H](CO)N3C(=O)C2CC2)cc1
-14 | O=C(c1cccc(F)c1)N1C[C@@H]2[C@H](c3ccccc31)[C@@H](CO)N2C(=O)C1CCCCC1
-2 | CN(C)CC#Cc1ccc([C@@H]2[C@H](CO)N3CCCCN(C(=O)C4CCC4)C[C@@H]23)cc1
-4 | C[C@H](CO)N1C[C@H](C)[C@H](CN(C)C(=O)NC2CCCCC2)Oc2ccc(NC(=O)Cc3cn(C)c4ccccc34)cc2CC1=O

Filtered by structure: the compounds so far containing fluorine (four)
Yeast UUG start | compound
7 | COc1ccc(CN(C)C[C@H]2Oc3ccc(NC(=O)Nc4ccc(F)cc4)cc3C(=O)N([C@H](C)CO)C[C@H]2C)cc1
26 | CN(C)CC#Cc1ccc([C@@H]2[C@H](CO)N3CCCCN(C(=O)Nc4ccccc4F)C[C@@H]23)cc1
4 | CCS(=O)(=O)N1CCCCN2[C@H](C1)[C@H](c1ccc(-c3ccccc3F)cc1)[C@@H]2CO
-14 | O=C(c1cccc(F)c1)N1C[C@@H]2[C@H](c3ccccc31)[C@@H](CO)N2C(=O)C1CCCCC1

Going on with the list.
Yeast UUG start | compound
8 | C[C@H]1CN([C@@H](C)CO)C(=O)c2cccc(NS(=O)(=O)c3ccc(Cl)cc3)c2O[C@H]1CN(C)C(=O)Nc1ccccc1
9 | COc1ccc(C(=O)N2C[C@@H]3[C@H](c4ccccc42)[C@H](CO)N3Cc2ccccc2)cc1
5 | CC(C)NC(=O)N(C)C[C@@H]1Oc2ccc(NS(=O)(=O)c3ccc(F)cc3)cc2CC(=O)N([C@H](C)CO)C[C@H]1C
-7 | C[C@H](CO)N1C[C@H](C)[C@H](CN(C)S(=O)(=O)c2cccs2)OCc2cn(nn2)CCCC1=O
-5 | N#Cc1cccc(-c2ccc3c(c2)[C@H]2[C@H](CCN2S(=O)(=O)c2cccc(F)c2)[C@@H](CO)N3)c1
9 | COc1ccc(NC(=O)N2CCCCN3[C@@H](CO)[C@H](c4ccc(-c5ccccc5F)cc4)[C@@H]3C2)cc1
-3 | Cc1ccc(S(=O)(=O)N2CC[C@H]3[C@H](CO)Nc4ccc(Br)cc4[C@H]32)cc1
-7 | CO[C@H]1CN(C)C(=O)c2ccc(NS(=O)(=O)c3ccc(C)cc3)cc2OC[C@@H](C)NC[C@@H]1C
-12 | CCS(=O)(=O)Nc1ccc2c(c1)C(=O)N(C)[C@@H]1CC[C@H](CC(=O)NCCCN3CCOCC3)O[C@@H]1CO2
2 | CO[C@@H]1CN(C)C(=O)c2ccc(NS(=O)(=O)c3ccc(C)cc3)cc2OC[C@H](C)N(Cc2nccs2)C[C@@H]1C
-2 | C[C@H]1CN([C@@H](C)CO)C(=O)Cc2cc(NC(=O)CCN3CCOCC3)ccc2O[C@H]1CN(C)Cc1ccc(Cl)c(Cl)c1
-7 | CC(C)NC(=O)N(C)C[C@@H]1Oc2c(NC(=O)Nc3ccc(F)cc3)cccc2C(=O)N([C@H](C)CO)C[C@H]1C
-8 | C/C=C/c1ccc([C@@H]2[C@@H](CO)N[C@@H]2CN(C)S(=O)(=O)c2ccccc2)cc1
-17 | C[C@H]1CN([C@@H](C)CO)C(=O)c2cccc(NC(=O)Nc3ccc(C(F)(F)F)cc3)c2O[C@H]1CN(C)S(=O)(=O)c1ccc(Cl)cc1
12 | C[C@@H]1CN([C@@H](C)CO)C(=O)c2cc(NC(=O)Cc3cn(C)c4ccccc34)ccc2O[C@H]1CN(C)Cc1ccc2c(c1)OCO2
1 | CCCNC(=O)C[C@@H]1CC[C@H]2[C@@H](COC[C@@H](O)CN2C(=O)Nc2ccccc2OC)O1
-18 | COc1ccc(NC(=O)Nc2ccc3c(c2)C(=O)N([C@H](C)CO)C[C@@H](C)[C@H](CN(C)C(=O)Nc2c(C)noc2C)O3)cc1
2 | COc1ccc(NC(=O)N(C)C[C@H]2Oc3c(NC(=O)C4CCOCC4)cccc3C(=O)N([C@H](C)CO)C[C@@H]2C)cc1
5 | Cc1noc(C)c1NC(=O)Nc1cccc2c1O[C@H](CN(C)Cc1ccc(-c3ccccc3)cc1)[C@H](C)CN([C@H](C)CO)C2=O
6 | CC(C)NC(=O)N(C)C[C@@H]1Oc2ccc(NC(=O)Nc3ccc(F)cc3)cc2C(=O)N([C@@H](C)CO)C[C@H]1C
3 | CC(C)NC(=O)N1C[C@@H]2[C@H](c3ccccc31)[C@@H](CO)N2C(=O)c1ccc(F)cc1
-6 | Cn1cnc(S(=O)(=O)N2CCCCN3[C@@H](CO)[C@@H](c4ccc(-c5cccc(F)c5)cc4)[C@@H]3C2)c1
6 | C/C=C/c1ccc([C@@H]2[C@@H](CO)N(C(C)=O)[C@H]2CN(CC)C(=O)CN(C)C)cc1
8 | C[C@H](CO)N1C[C@H](C)[C@H](CN(C)C(=O)Nc2ccc(C(F)(F)F)cc2)Oc2c(NS(=O)(=O)c3cccs3)cccc2C1=O
-3 | CN1C(=O)c2cc(NC(=O)c3cnccn3)ccc2OC[C@@H]2O[C@H](CC(=O)N[C@@H]3CCN(Cc4ccccc4)C3)CC[C@@H]21
-9 | C[C@@H]1CN([C@@H](C)CO)C(=O)c2cccc(NC(=O)c3cnccn3)c2O[C@@H]1CN(C)C
2 | C[C@@H]1CN([C@H](C)CO)C(=O)c2cc(NC(=O)Nc3ccccc3)ccc2O[C@@H]1CN(C)S(C)(=O)=O
-9 | O=C(NC1CCCC1)N1CCCCN2[C@H](CO)[C@H](c3ccc(-c4ccccc4)cc3)[C@@H]2C1
6 | CC(C)NC(=O)N(C)C[C@@H]1OCc2cnnn2CCCC(=O)N([C@@H](C)CO)C[C@@H]1C
-14 | CC(=O)N1CCCCN2[C@H](C1)[C@H](c1ccc(-c3ccncc3)cc1)[C@@H]2CO
1 | CO[C@@H]1CN(C)C(=O)c2ccc(NC(=O)C3CC3)cc2OC[C@@H](C)N(C(=O)Nc2ccc(C(F)(F)F)cc2)C[C@H]1C
9 | CCCC#Cc1ccc([C@H]2[C@@H](CO)N3CCCCN(C(=O)c4ccc5c(c4)OCO5)C[C@H]23)cc1
-14 | O=C(C1CCOCC1)N1CC[C@@H]2[C@H]1c1cc(-c3cccc(F)c3)ccc1N[C@@H]2CO
0 | CC(C)[C@H](C)NC(=O)N(C)C[C@H]1OCc2ccccc2-c2c(n(C)c3ccccc23)C(=O)N([C@H](C)CO)C[C@H]1C
7 | C[C@H](NC(=O)[C@@H]1N[C@@H]2c3ccc(C4=CCCCC4)c(=O)n3C[C@@H]2[C@H]1CO)c1ccccc1
1 | C[C@H]1CN([C@@H](C)CO)C(=O)c2cc(NC(=O)Cc3cn(C)c4ccccc34)ccc2O[C@H]1CN(C)C(=O)Nc1ccc2c(c1)OCO2
7 | COCCNC(=O)C[C@@H]1C[C@H]2c3cc(NC(=O)Nc4ccccc4)ccc3O[C@H]2[C@H](CO)O1
21 | C[C@@H]1CN([C@H](C)CO)C(=O)c2cc(NC(=O)CCN3CCOCC3)ccc2O[C@H]1CN(C)Cc1ccc(Oc2ccccc2)cc1
5 | CN1C(=O)c2cc(NS(C)(=O)=O)ccc2OC[C@@H]2O[C@@H](CC(=O)O)CC[C@@H]21
16 | O=C(Nc1ccc(F)cc1)N1C[C@@H]2[C@H](c3ccccc31)[C@@H](CO)N2C(=O)c1ccccc1
28 | C/C=C/c1ccc([C@@H]2[C@H](CO)N3CCCCN(C(=O)Nc4cc(F)ccc4F)C[C@@H]23)cc1
4 | Cc1ccc(S(=O)(=O)N2CC[C@@H]3[C@H](CO)Nc4ccc(Br)cc4[C@@H]32)cc1
-5 | CN1CCCCN2[C@H](C1)[C@H](c1ccc(-c3ccc(F)cc3)cc1)[C@@H]2CO
8 | CN(C)C(=O)C[C@@H]1CC[C@H]2[C@@H](COc3ccc(NC(=O)Nc4cccc(Cl)c4)cc3C(=O)N2C)O1
11 | CN(C)C(=O)C[C@H]1CC[C@H]2[C@H](COc3ccc(NC(=O)Nc4cccc(Cl)c4)cc3C(=O)N2C)O1
6 | COCC(=O)Nc1ccc2c(c1)[C@@H]1C[C@@H](CC(=O)N3CCc4ccccc4C3)O[C@H](CO)[C@@H]1O2
21 | CC(C)NC(=O)Nc1ccc2c(c1)CC(=O)N([C@H](C)CO)C[C@@H](C)[C@@H](CN(C)Cc1ccc(C(F)(F)F)cc1)O2
-7 | CCCNC(=O)C[C@@H]1CC[C@@H]2[C@H](COC[C@H](O)CN2C(=O)Nc2ccc3c(c2)OCO3)O1
1 | CC(C)NC(=O)N(C)C[C@@H]1Oc2ccc(NC(=O)CCC(F)(F)F)cc2CC(=O)N([C@@H](C)CO)C[C@@H]1C
-5 | N#Cc1cccc(-c2ccc([C@H]3[C@H]4CN(Cc5ccccc5F)CCCCN4[C@H]3CO)cc2)c1
-6 | COc1ccc(CN(C)C[C@@H]2Oc3c(NC(=O)c4ccc(-c5nccs5)cc4)cccc3C(=O)N([C@H](C)CO)C[C@H]2C)cc1
30 | Cc1cccc(S(=O)(=O)N2C[C@H]3[C@@H](c4ccccc42)[C@@H](CO)N3C(=O)c2ccccc2)c1
-14 | O=C(C[C@H]1CC[C@H]2[C@@H](COC[C@H](O)CN2C(=O)Nc2ccccc2)O1)NCCCN1CCOCC1
4 | C[C@H](CO)N1C[C@H](C)[C@H](CN(C)Cc2ccc(Oc3ccccc3)cc2)Oc2c(NC(=O)c3ccc(-c4nccs4)cc3)cccc2C1=O
8 | CN1C(=O)c2cc(NC(=O)C3CCCC3)ccc2OC[C@@H]2O[C@@H](CC(=O)NCC(F)(F)F)CC[C@H]21
-8 | Cn1cnc(S(=O)(=O)N2CCCCN3[C@H](C2)[C@H](c2ccc(-c4ccc(F)cc4)cc2)[C@@H]3CO)c1
-5 | O=C(C[C@H]1CC[C@H]2[C@@H](COC[C@H](O)CN2Cc2cccc(C(F)(F)F)c2)O1)NCc1ccncc1
0 | O=C(Nc1ccc(Cl)cc1)N1C[C@H]2[C@@H](c3ccccc31)[C@@H](CO)N2C(=O)c1ccccn1
-8 | COCC(=O)N1[C@@H]2CN(C(=O)C3CC3)c3ccccc3[C@@H]2[C@@H]1CO
-5 | C[C@H]1CN([C@@H](C)CO)C(=O)c2cc(NC(=O)Nc3ccc4c(c3)OCO4)ccc2O[C@H]1CN(C)C
24 | Cc1ccc(S(=O)(=O)N(C)C[C@H]2Oc3c(NC(=O)NC(C)C)cccc3C(=O)N([C@@H](C)CO)C[C@H]2C)cc1
-4 | CCC(=O)N1CCCCN2[C@H](C1)[C@H](c1ccc(C#Cc3ccccc3)cc1)[C@@H]2CO

Some of the compounds tested (hit frequency here may not be typical).
